Rango complex inh: qHTS Assay for Inhibitors of Rango (Ran-regulated importin-beta cargo) - Importin beta complex formation. Potency, µM (top dose mostly 92.2 µM), without a hit: at the highest dose inhibition of complex formation. 340,000 tested, 0.031% active. AID 540263, 2011. Importin subunit beta-1 (Homo sapiens), Q14974. Rango CFP/YFP FRET sensor + importin beta, 45 min; active = rising FRET ratio curve, often small or poorly fitted; inconclusive = mostly compound fluorescence or quenching in the first reads; inactive = flat curves in all reads;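 also: potency is read from the fitted curve at half-maximal effect; 0% = DMSO wells and 100% = buffer wells lacking importin beta; nearly all actives have a fitted effect of over 15% in size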
Target sequence (Q14974 whole entry, looked up): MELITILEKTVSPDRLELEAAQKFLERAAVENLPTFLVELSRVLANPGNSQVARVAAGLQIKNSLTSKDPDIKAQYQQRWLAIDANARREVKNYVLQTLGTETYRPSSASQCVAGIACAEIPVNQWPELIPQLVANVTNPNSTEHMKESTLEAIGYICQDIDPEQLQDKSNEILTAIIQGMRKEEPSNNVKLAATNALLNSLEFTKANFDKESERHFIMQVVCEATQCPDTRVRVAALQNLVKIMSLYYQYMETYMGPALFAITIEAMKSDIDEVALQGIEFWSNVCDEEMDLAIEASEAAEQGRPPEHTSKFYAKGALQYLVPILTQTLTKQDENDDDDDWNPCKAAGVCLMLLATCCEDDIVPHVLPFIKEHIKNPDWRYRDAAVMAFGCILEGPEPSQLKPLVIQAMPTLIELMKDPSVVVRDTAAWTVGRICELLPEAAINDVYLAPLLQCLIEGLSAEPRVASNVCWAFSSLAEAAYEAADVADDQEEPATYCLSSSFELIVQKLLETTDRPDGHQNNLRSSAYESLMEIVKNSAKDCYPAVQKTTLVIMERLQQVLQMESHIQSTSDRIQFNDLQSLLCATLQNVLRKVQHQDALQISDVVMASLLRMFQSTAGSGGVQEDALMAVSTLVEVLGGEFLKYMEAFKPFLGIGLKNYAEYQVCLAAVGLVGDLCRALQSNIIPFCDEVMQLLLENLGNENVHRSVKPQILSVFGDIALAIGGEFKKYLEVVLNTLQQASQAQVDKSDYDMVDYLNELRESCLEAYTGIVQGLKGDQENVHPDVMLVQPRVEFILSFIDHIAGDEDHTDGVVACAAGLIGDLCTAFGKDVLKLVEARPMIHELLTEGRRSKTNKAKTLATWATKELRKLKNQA
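Inhibition scored from the CFP 486 nm/YFP 530 nm FRET ratio 45 min after adding 0.125 microM importin beta to 50 nM Rango biosensor preincubated 5 min with compound (room temperature, PBS with DTT, Tween-20, BSA). No-importin wells as positive control.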
miR-21 FLuc: qHTS Assay for Modulators of miRNAs and/orActivators of miR-21. HeLa miR-21 FLuc reporter, luciferase, 48 h. Potency, µM (series often up to 38.3 µM), inactives show top-dose reporter change, positive = more light. 340,000 tested, under 10 active; active = well fitted rising curve with a large enough effect; inconclusive = small, poorly fitted or top-dose-only effect; inactive = no such curve, though single readings can be large or run the other way;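 also: % of control where 0% means no effect; miR-21 action dims this reporter so a rising signal means less miR-21 action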
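HeLa cells stably expressing CMV-driven firefly luciferase with a downstream miR-21 binding sequence, endogenously expressing miR-21, were treated with titrations (up to about 40uM final) for 48 hours at 37 degree Celsius. Luciferase luminescence was read after lysis.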
GLA inh pH 4.5: qHTS Assay for Inhibitors of Human alpha-Galactosidase at pH 4.5; activity change, negative = inhibition, % at 105 µM; Alpha-galactosidase A (Homo sapiens), P06280; purified enzyme, 4-MU-alpha-Gal fluorescence, pH 4.5; 230,000 tested, under 10 active; inconclusive = small, poorly fitted or top-dose-only inhibition, or a rising curve; inactive = flat fitted curve, though single readings scatter; no compound was filed as active;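 also: 0% = full activity with enzyme and -100% = basal without enzyme; dose as in the result columns while the protocol names 77 µM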
Rango release inh: qHTS Assay for Inhibitors of RanGTP induced Rango (Ran-regulated importin-beta cargo) - Importin beta complex dissociation. Snurportin-1 (Homo sapiens) + GTP-binding nuclear protein Ran (Homo sapiens) + Importin …. Biochemical FRET Rango-importin beta, RanGTP-induced dissociation. Potency, µM (titrated, usually from 46.1 µM), inactives show top-dose activity change, negative = inhibition. 340,000 tested, 0.071% active. AID 540253, 2011; active means falling FRET ratio curve, often poorly fitted, with flat reads before Ran was added; inconclusive means other falling curves, or compound fluorescence or quenching; inactive means flat or rising ratio curve;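 also: potency is read from the fitted curve at half-maximal effect; % of control where 0% means no effect; nearly all actives have a fitted effect of over 45% in size; -100% = wells without RanGTP and RCC1; the record marks most hits as doubtful in a second field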
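Rango/importin beta premix (0.1/0.25 uM final), PBS + 1 mM DTT + 0.02% Tween-20 + 0.1% BSA; cpd 5 min RT; FRET pre-read; + RanGTP-RCC1 (0.6 uM Ran, 2 mM GTP, 0.2 uM RCC1); 45 min RT; FRET post-read, ex 430, em 486/530 nm.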
* = called active by the depositor; ? = inconclusive; nt = not tested or not shown; & = joins results of further samples. Not all compounds are listed; rates above refer to the full screens.

Preview, 4 compounds:
nr	molecule	Rango complex inh	miR-21 FLuc	GLA inh pH 4.5	Rango release inh
1	COC(=O)C(C)Sc1ncnc2c1c(-c1ccccc1)cn2-c1ccc(OC)cc1 (stereo not given)	3.5%	-14%	-2	6%
2	CCOc1ccc(NS(=O)(=O)c2ccc(C(=O)N3CCN(C(C)=O)CC3)cc2)cc1	-2.1%	5%	nt	-5%
3	Fc1ccc(NC(=S)NC2CCN(Cc3ccccc3)CC2)cc1	-2.8%	6%	2	1%
4	Cc1cc([N+](=O)[O-])ccc1NC(=O)CN1CCN(Cc2ccccc2)CC1	0.1%	-7%	nt	-8%

All compounds of this part, from the first entry:
nr	molecule	Rango complex inh	miR-21 FLuc	GLA inh pH 4.5	Rango release inh
1	COC(=O)C(C)Sc1ncnc2c1c(-c1ccccc1)cn2-c1ccc(OC)cc1 (stereo not given)	3.5%	-14%	-2	6%
2	CCOc1ccc(NS(=O)(=O)c2ccc(C(=O)N3CCN(C(C)=O)CC3)cc2)cc1	-2.1%	5%	nt	-5%
3	Fc1ccc(NC(=S)NC2CCN(Cc3ccccc3)CC2)cc1	-2.8%	6%	2	1%
4	Cc1cc([N+](=O)[O-])ccc1NC(=O)CN1CCN(Cc2ccccc2)CC1	0.1%	-7%	nt	-8%
5	CCOC(=O)c1cc(NC(=O)c2cccnc2)ccc1N1CCOCC1	1.5%	4%	0	-5%
6	Cc1cc(C)n(-c2nc(NCCO)c3c4c(sc3n2)CCCC4)n1	6.6%	-15%	10	8%
7	COc1cc(/C=N/n2nnnc2N)ccc1O	?	-5%	-12	-7%
8	CC(=O)N[C@H]1[C@H](OCc2ccccc2F)O[C@H](COC(C)=O)[C@@H](OC(C)=O)[C@@H]1OC(C)=O	1.5%	-10%	1	1%
9	NC(=O)c1ccc(NC(=O)C2CCCC2)cc1	1.8%	-5%	nt	-15%
10	CC(=O)N1CCN(CC(=O)c2ccc(Br)cc2)CC1	4.5%	-5%	6	6%
11	CC(=O)Nc1ccc(N(C)S(C)(=O)=O)cc1	-2.3%	0%	4	-7%
12	COc1ccc(NC(=O)Nc2c[nH]c(=O)[nH]c2=O)cc1	-2.7%	-3%	nt	-6%
13	Cc1cccc(N2CCN(C(=O)Cn3nc(C)n4cccc4c3=O)CC2C)c1 (stereo not given)	-2.8%	4%&-23%	nt	-4%
14	CCCC(=O)C1=C(N(C)c2ccccc2)CC(C)(C)C(C(=O)OC)C1=O (stereo not given)	-1.4%	-4%	2	3%
15	O=C1/C(=C/c2ccccc2Cl)SC(=S)N1CCC(=O)N1CCCCC1CCO (stereo not given)	-3.3%	16%	nt	9%
16	O=C(c1cccc(N2CCNC2=O)c1)N1CCCC(Nc2cccc(F)c2)C1 (stereo not given)	?	-5%	nt	7%
17	CCOc1ccccc1CN1CCC(Oc2ccc(C(=O)NCc3ccccn3)cc2)CC1	0.1%	1%	nt	-7%
18	CC(C)Cc1nnc(NC(=O)CSc2ncn[nH]2)s1	?	-2%	-2	3%
19	CNC(=O)c1cc(S(=O)(=O)Nc2ccc(C)cc2C)ccc1C	1.5%	-4%	nt	10%
20	CCOc1ccc(NC(=O)NN2C(C)CCCC2C)cc1 (stereo not given)	4.7%	20%	nt	29%
21	CC(=O)N1CCc2cc(S(=O)(=O)NC(CC(C)C)C(=O)Nc3cc(C)ccn3)ccc21 (stereo not given)	3.4%	-3%	-3	-4%
22	COc1ccc2[nH]c3c(c2c1)CCN1C(=O)C(CC(=O)NCCC2=CCCCC2)C[C@H](C(=O)N(C(C)C)C(C)C)[C@@]31C (stereo not given in full)	2.5%	nt	nt	-2%
23	OC(CNCC1COc2ccccc2O1)COCc1cccs1 (stereo not given)	-3.0%	-7%	-7	17%
24	Cc1cc(Br)ccc1NC(=O)C(C)c1ccc([N+](=O)[O-])cc1 (stereo not given)	0.5%	-8%	-4	5%
25	C=CCOc1ccc(CNc2nccs2)cc1	-0.8%	-55%	5	-2%
26	Cc1cc(C)c(S(=O)(=O)N2CCCCC2)c(C)c1N(C)S(=O)(=O)c1ccccc1	1.2%	9%	-5	0%
27	COc1ccc(/C=C2/SC(=S)N(Cc3ccccc3)C2=O)cc1O	?	-17%	nt	-19%
28	O=C(Cc1ccc(NC(=O)C2CCN(C(=O)C3CC3)CC2)cc1)Nc1ccc(C(=O)N2CCOCC2)cc1	-3.9%	nt	nt	1%
29	O=C(NCCN1C(=O)S/C(=C\c2ccccc2Cl)C1=O)C1=COCCO1	4.6%	nt	nt	-14%
30	O=C(O)c1ccc2c(c1)N(Cc1cccc(F)c1)C(=O)CS2	0.2%	4%	0	4%
31	CC(=O)Nc1ccc(C(=O)Nc2cc(S(=O)(=O)N3CCOCC3)ccc2N2CCOCC2)cc1	-0.4%	nt	nt	4%
32	COc1ccc(NC(=O)C2CC(=O)n3cnnc3S2)cc1 (stereo not given)	-3.1%	-1%	3	4%
33	CCCC(=O)OCC(=O)NCc1ccc(Cl)cc1	-0.6%	5%	-5	-1%
34	CCOC(=O)c1c(-c2ccc(OC)cc2)csc1NC(=O)COc1ccc2c(C)cc(=O)oc2c1	-0.2%	-2%	1	20%
35	COc1ccc(N2CCN(C(=O)c3ccc4c(c3)CCN4S(=O)(=O)c3ccccc3)CC2)cc1	-0.5%	-4%&11%	nt	1%
36	Cn1nnnc1Sc1ncnc2scc(-c3cc4ccccc4o3)c12	0.1%	nt	nt	11%
37	Cc1cc(C)cc(-n2c(=O)c3sccc3n(CC(=O)NCc3ccco3)c2=O)c1	11%	1%	-2	14%
38	CC(C)(C)OC(=O)C[C@H]1C/C=C\C[C@H](CC(=O)N[C@H](CO)Cc2ccccc2)C(=O)N[C@@H](Cc2ccccc2)COC1=O	-1.0%	nt	nt	24%
39	CC(=O)OCCC(NS(=O)(=O)OCC(Cl)(Cl)Cl)c1ccccc1 (stereo not given)	0.1%	0%	nt	-13%
40	COCCCNC(=S)NC(=O)c1ccc(C)cc1	-1.8%	-45%	-1	-2%
41	O=C(Nc1ccc(NC(=O)C2CC2)nc1)c1ccccc1F	-1.0%	-47%	nt	1%
42	O=C(Nc1ccc2oc(-c3ccccc3)nc2c1)c1ccc2c(c1)OCCO2	-0.5%	-1%	-3	-19%
43	Cc1ccc2[nH]c(=O)c(CN(CC3CCCO3)C(=O)c3ccncc3)cc2c1 (stereo not given)	0.2%	-6%	0	0%
44	CCC(C)NC(=O)c1cnn2c1NC(c1ccc3c(c1)OCO3)CC2C(F)(F)F (stereo not given)	7.7%	-1%	-1	-1%
45	S=C(NCc1ccccc1)N1CCCCC1	-1.5%	-3%	3	-7%
46	COc1ccc2nc(C)c3c(c2c1)OC(C(C)(Cl)Br)C3 (stereo not given)	4.7%	14%	-7	-8%
47	Cc1ccc(/C=N/NC(=O)C2CCN(Cc3ccc(F)cc3Cl)CC2)o1	1.0%	-4%	5	-13%
48	O=C(Nc1cccnc1)c1cccc(S(=O)(=O)N2CCc3ccccc32)c1	-7.7%	18%	1	7%
49	CCOc1cc(C(N)=O)cc(Cl)c1OCc1ccccc1	0.1%	1%	-3	2%
50	COc1ccc(N2C(=O)CC(SCC(=O)O)C2=O)cc1 (stereo not given)	10%	-2%	-6	9%
51	O=C1CN(C(=O)CSc2nnc(C3CC3)n2-c2ccccc2)c2ccccc2N1	0.9%	1%	3	-14%
52	CCOC(=O)CSc1nc2c(sc3ccc([N+](=O)[O-])cc32)c(=O)n1Cc1ccco1	1.1%	-6%	5	-24%
53	CCn1cc(C(=O)N(C)c2ccc(OC)cc2)c2cc(OC)c(OC)cc2c1=O	-1.2%	-5%	nt	11%
54	CC1CCc2c(C(=O)Nc3ccc(N4CCOCC4)cc3)csc2C1 (stereo not given)	2.3%	-20%	-7	-2%
55	O=C(NCC(=O)N1CCc2ccccc2C1)c1ccc(Cl)cc1Cl	5.7%	-14%	nt	5%
56	Cc1cc(C)c(NC(=O)CN(C)C(=O)CNC(=O)c2cccs2)c(C)c1	0.5%	nt	nt	0%
57	O=c1c2ccccc2nc2c3ccccc3c(NCc3ccccn3)nn12	-4.4%	-4%	17	?
58	N=c1c2ccccc2nnn1-c1ccccc1[N+](=O)[O-]	2.9%	nt	nt	-8%
59	CC(C)C(=O)Nc1ccc(S(=O)(=O)Nc2nccc(/C=C/c3ccccc3)n2)cc1	-2.8%	-24%	-6	-8%
60	Cc1ccc(S(=O)(=O)N2CCCCC2)cc1NC(=O)COC(=O)Cc1ccc(Cl)cc1	-2.4%	3%	5	10%

(list continues)
nr	molecule	Rango complex inh	miR-21 FLuc	GLA inh pH 4.5	Rango release inh
61	O=[N+]([O-])c1ccc2cc[nH]c2c1	-1.6%	nt	nt	-1%
62	O=C(N/N=C/c1ccc(O)cc1)/C(=C/c1ccc([N+](=O)[O-])cc1)NC(=O)c1ccccc1	0.2%	-2%	0	7%
63	O=C(Nc1nccs1)[C@@H]1CC=C[C@@H]2CCN(Cc3ccccc3)C(=O)[C@@H]21	-0.2%	nt	nt	-15%
64	Cc1ccc(CNC(=O)Nc2ccc(Cl)cc2)cc1	5.9%	-28%	nt	2%
65	Cc1ccccc1COC(=O)CNC(=O)c1sc2ccccc2c1Cl	-2.1%	nt	nt	-6%
66	CCCC(C(=O)NCc1ccco1)N(CC1CCCO1)C(=O)CNS(=O)(=O)c1ccc(F)cc1 (stereo not given)	2.8%	0%	nt	9%
67	COc1ccc(C(C(=O)NC(C)(C)C)N(Cc2ccc(F)cc2)C(=O)CCC(=O)Nc2cc(C)on2)cc1 (stereo not given)	0.5%	1%	nt	-3%
68	CCCNC(=S)N1CCN(CC)CC1	-3.6%	-9%	0	?
69	COc1ccc(CN(Cc2cccnc2)C(=S)NCCc2ccccc2)cc1OC	0.2%	3%	-1	1%
70	CC1(C)CC(=O)c2sc(NS(=O)(=O)c3ccc(F)cc3)nc2C1	0.6%	-3%	9	1%
71	O=C(Cn1nnc(-c2ccc(F)cc2)n1)Nc1cccc(S(=O)(=O)N2CCCC2)c1	-0.1%	nt	nt	9%
72	CCCCC(=O)NNC(=S)NC(=O)C(c1ccccc1)c1ccccc1	-2.5%	17%	4	16%
73	CCCCCCCCCn1cc(C(C)=O)c(=O)[nH]c1=O	-3.9%	1%	-4	13%
74	O=C(CSc1nc(-c2ccccc2F)nc2nc[nH]c12)Nc1c(Cl)cc(Cl)cc1Cl	nt	-5%	-2	nt
75	CN(C)c1ccc(/C=N/N=C/c2ccccc2O)cc1	?	-76%	2	?
76	FC(F)(F)c1ccccc1Nc1nccs1	-4.2%	5%	6	-1%
77	Cc1ccc(N2C(=O)c3ccccc3C2Nc2cccnc2)nc1 (stereo not given)	0.7%	-36%	14	11%
78	Cc1ccc(S(=O)(=O)NCCNc2ccc(Br)c(C)c2)cc1	-0.2%	nt	nt	24%
79	CC1CCN(S(=O)(=O)c2ccc(NC(=O)CN3CCCC(C)C3)cc2)CC1 (stereo not given)	-4.9%	-1%	0	-1%
80	CC(=O)Oc1ccc(-c2cc3ccccc3oc2=O)cc1	-2.6%	nt	nt	-13%
81	COc1ccc(/C=C(\C#N)C(=O)OCC(=O)NCc2ccccc2Cl)cc1	-2.4%	2%	6	-1%
82	CCc1cc(C(=O)NCC(c2cccs2)N2CCOCC2)sc1C (stereo not given)	-1.5%	nt	nt	-11%

Two entries drawn at random from those above:
nr	molecule	Rango complex inh	miR-21 FLuc	GLA inh pH 4.5	Rango release inh
79	CC1CCN(S(=O)(=O)c2ccc(NC(=O)CN3CCCC(C)C3)cc2)CC1 (stereo not given)	-4.9%	-1%	0	-1%
82	CCc1cc(C(=O)NCC(c2cccs2)N2CCOCC2)sc1C (stereo not given)	-1.5%	nt	nt	-11%

Source: PubChem (National Center for Advancing Translational Sciences (NCATS))
